NPR1 antag: human Npr1 receptor antagonism | P16066 | HEK293 hNpr1 GloSensor cGMP, ANP-stimulated luminescence | Potency, µM (titrated, usually from 46.3 µM), without a hit: at the highest dose activity change, negative = inhibition, hits mostly inhibitors | hit rate 1.6% among 76,000; active = well fitted inhibition curve with a large enough effect; inconclusive = small, poorly fitted or top-dose-only effect; inactive = no such curve, though single readings can be large or run the other way;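 further: nearly all actives have a fitted effect of over 60% in size; nearly all hits also lower the signal before the agonist is added; a reference antagonist and vehicle were the controls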
Target sequence (P16066 whole entry, looked up): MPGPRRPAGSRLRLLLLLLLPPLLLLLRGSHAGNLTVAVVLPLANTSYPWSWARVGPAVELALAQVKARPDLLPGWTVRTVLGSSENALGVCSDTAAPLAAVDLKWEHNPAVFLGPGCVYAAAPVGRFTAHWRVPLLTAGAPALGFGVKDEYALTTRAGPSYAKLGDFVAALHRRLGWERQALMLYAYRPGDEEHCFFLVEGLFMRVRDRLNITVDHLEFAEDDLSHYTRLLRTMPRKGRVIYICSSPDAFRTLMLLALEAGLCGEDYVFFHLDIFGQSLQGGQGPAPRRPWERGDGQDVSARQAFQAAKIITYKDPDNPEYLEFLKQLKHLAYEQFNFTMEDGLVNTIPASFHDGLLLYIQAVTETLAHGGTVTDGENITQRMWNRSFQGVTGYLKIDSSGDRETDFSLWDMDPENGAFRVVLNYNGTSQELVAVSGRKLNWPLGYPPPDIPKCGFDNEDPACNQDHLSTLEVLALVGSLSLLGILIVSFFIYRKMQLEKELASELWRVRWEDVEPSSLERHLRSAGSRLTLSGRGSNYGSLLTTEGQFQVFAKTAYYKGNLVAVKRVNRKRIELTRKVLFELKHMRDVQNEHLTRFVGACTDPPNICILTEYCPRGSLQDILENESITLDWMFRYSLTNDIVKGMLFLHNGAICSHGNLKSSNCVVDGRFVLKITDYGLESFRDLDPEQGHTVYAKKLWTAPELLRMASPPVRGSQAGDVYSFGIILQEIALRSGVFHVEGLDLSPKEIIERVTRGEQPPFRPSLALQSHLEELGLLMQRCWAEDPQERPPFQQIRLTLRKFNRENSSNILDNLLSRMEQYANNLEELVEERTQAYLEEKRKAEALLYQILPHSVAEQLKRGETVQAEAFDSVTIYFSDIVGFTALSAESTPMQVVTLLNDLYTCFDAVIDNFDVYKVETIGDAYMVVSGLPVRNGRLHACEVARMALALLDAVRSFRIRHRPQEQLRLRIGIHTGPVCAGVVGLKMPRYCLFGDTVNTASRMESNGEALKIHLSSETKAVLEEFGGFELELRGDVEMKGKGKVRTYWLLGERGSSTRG
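HEK293 cells stably expressing human Npr1 and cGMP GloSensor pGS-40F, loaded 2 h with 2% GloSensor reagent, given compound 30 min at room temperature. Luminescence read before and 20 min after 0.1 nM hNppA.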
Starred values were filed as active, the others as inactive; u = inconclusive; [ ] = remark or other dose. On the % scale 0 is the no-effect control and ±100 the full control effect; potency means the concentration at half of the fitted maximal effect.

structure | NPR1 antag
CCN(CC)C(=O)c1cc2c(s1)CCC(C(=O)N1CCN(c3ccccn3)CC1)C2 (configuration not stated) | -20%
CCCC(C)N1CC2(CCN(C(=O)c3cnn4c3CCCC4)CC2)OC1=O (configuration not stated) | 1%
O=C(NC1CCCN(c2cc(N3CCCC3)ncn2)C1)c1ccsc1 (configuration not stated) | -1%
Cc1cccc(N2CCN(C(=O)C3N(C(C)C)C(=O)C34CCCCC4)CC2)c1 (configuration not stated) | -8%
Cc1ncccc1OC1(C(=O)O)CCN(C(=O)Cc2ccn(C)c2)CC1 | 22%
Cc1nc2cccnc2n1CC1CCCN(S(=O)(=O)c2cccc(F)c2)C1 (configuration not stated) | -18%
COc1cccc(CNC(=O)NC2CCc3n[nH]c(=O)n3CC2)c1 (configuration not stated) | 2%
NC(=O)[C@@H](Cc1ccccc1)NC(=O)[C@@H]1[C@@H](NC(=O)Nc2ccc(F)cc2F)CCN1C(=O)c1cnccn1 | -1%
Cc1ccc(C(=O)N(C)Cc2cccc(C(F)(F)F)c2)cc1 | -10%[70.6 µM]
O=C1c2cnc(-c3ccncc3)nc2OCCN1Cc1ccc(F)cc1F | 18µM*

structure | NPR1 antag
CCN(CC(C)(C)C)C(=O)CC1COc2ccc(C(=O)N(C)C)cc2N1C (configuration not stated) | -2%
CCCc1cc(N2CCC(NCc3cc(F)c(F)c(F)c3)CC2)nc(C)n1 | 8%
NC1(C(=O)N2CCC(c3nnc(Cn4ccnc4)n3C3CC3)CC2)CC1 | 1%
CN(Cc1ccc2nsnc2c1)Cc1cc2n(n1)CCCNC2 | 1%
Cc1ccncc1-c1c(C)nn2c1N(Cc1cccc(O)c1)CCC2 | -28%[70.6 µM]
C[C@@H](NC(=O)C1=C[C@@H](NS(=O)(=O)c2cccs2)[C@@H](O)[C@H](O)C1)C(N)=O | -3%[70.6 µM]
COc1ccc(CN2C(=O)COC[C@H]2C(=O)N2CCC(Cc3ccccc3)CC2)cc1 | -9%
Cc1ccc(CC(=O)N2[C@@H]3CC[C@H]2CC(NC(=O)c2ccncc2)C3)cc1 (some centres not stated) | -1%
O=C(Nc1ccccc1)N1Cc2[nH]cnc2C[C@H]1c1nc(-c2ccc(Cl)cc2)no1 | u
Cn1nccc1C(=O)N1CCN(C(=O)N2CC3CC(C2)[C@H]2CCCC(=O)N2C3)CC1 (some centres not stated) | 1%

structure | NPR1 antag
CO[C@@H]1COCC[C@H]1NC(=O)c1ccc(SCCO)cc1 | 9%
CN1C[C@H](O)C[C@H]1c1nnc2n1CCN(C(=O)CN1CCCCCC1)CC2 | 7%
Cc1cnc(C(=O)N2CCC(N3C(=O)C4(CCCCC4)C3c3ccccc3)CC2)cn1 (configuration not stated) | 1%
O=C(NCCc1noc(C2CC2)n1)Nc1cccc(C(F)(F)F)c1 | 1%
O=C(NCc1cccc(F)c1)c1nc2c(o1)CCN(Cc1ccc3[nH]ccc3c1)CC2 | -5%[70.6 µM]
CCC(=O)N[C@@H]1CN(Cc2ccccc2)C[C@H]1CN(C)C | -3%
CCN1C(=O)CCN(C(=O)c2ccc(OC)nc2OC)CC12CCOCC2 | -8%
Cc1nccn1CC(=O)N1CCCC(c2ccc(C(=O)O)cc2)C1 (configuration not stated) | -3%
COCCNC(=O)[C@H]1C[C@H](Oc2ccccc2)CN1Cc1cn(C)c2ccccc12 | 8%
Cc1noc([C@@H]2CN(S(=O)(=O)c3cccs3)C[C@H]2C(N)=O)n1 | -8%

structure | NPR1 antag
COc1ccc(NC(=O)N2CCCC(Cn3cnc4cccnc43)C2)cc1F (configuration not stated) | -2%
Cc1nc(CNC(=O)c2cn(CCC3CCCCN3)nn2)cc(=O)[nH]1 (configuration not stated) | 0%
CC(=O)Nc1ccc(CC(=O)N2CCc3c(nc4cc(-c5ccccc5Cl)[nH]n4c3=O)C2)cc1 | -13%
CC(C)CCN1CCC(O)(c2csc(CN3CCN(C)CC3)n2)CC1 | 0%[70.6 µM]
O=C1CCCN1CC(=O)N1CC(Oc2ccccc2-c2nc(C3CC3)no2)C1 | -5%
Cc1cc2cc(-c3c(C)noc3C)nc(N3CCN(c4ccccn4)CC3)c2o1 | -9%[70.6 µM]
Cc1ccc(C(=O)N2CCC3(C2)NC(=O)c2ccccc2O3)cc1 (configuration not stated) | -2%[70.6 µM]
CCC(C)(C)C(=O)N1C[C@@H](CO)[C@H](c2nc(C)no2)C1 | -2%
CC(C)CNC(=O)c1nc(-c2ccc(Cl)cc2)c2cnccn12 | 0%[70.6 µM]
COc1ccnc(N2CC[C@H](c3nnc(-c4ccc(N(C)C)cc4)o3)C2)n1 | -6%[70.6 µM]

structure | NPR1 antag
CCOc1ccc(NC(=O)N2CCc3cc(OC)c(OC)cc3C2CNC(C)=O)cc1 (configuration not stated) | -1%
CCc1ccc(CNC(=O)C2CCN(c3cc(C(F)(F)F)ncn3)CC2)cc1 | 14µM*
CNC(=O)N1CCC(Oc2ccccc2-c2nc(C3CC3)no2)C1 (configuration not stated) | 3%
Cc1nc(CN2CC3(CCN(C)C3)c3cc(C(=O)Nc4ccccc4)ccc32)cs1 (configuration not stated) | -4%[70.6 µM]
Cc1ccc(C)c(CNC(=O)CCc2conc2-c2cccc(F)c2)c1 | -2%
O=C(c1ccc(C(F)(F)F)cc1)N1CCn2c(nn(-c3cccc(Cl)c3)c2=O)C1 | -13%
COC[C@@H]1CN(C(=O)c2ccoc2)C[C@H]1c1ccccn1 | 0%
O=C(N[C@@H]1CN(C(=O)COc2ccc(F)cc2)CC[C@@H]1CO)C1CC1 | 6%
Fc1ccc(Cc2nc3nccc(-c4cc5ccccc5o4)n3n2)cc1 | -6%
Cc1noc(C)c1CCC(=O)NC1CCc2nn(CC3CC3)c(=O)n2CC1 (configuration not stated) | 4%

structure | NPR1 antag
Cc1ccc(NC(=O)Cn2c(=O)n(-c3ccc(F)cc3)c(=O)c3c2cc(C)n3C)c(C)c1 | -8%
CCN(CC)C(=O)CCc1ccc2c(c1)CN(C(=O)NC(C)C)CCO2 | 5%
CC(C)Cc1nc2nccc(-c3ccc4c(c3)OCCCO4)n2n1 | -2%
CCOc1ccccc1C(=O)NCc1nnc2ccc(-c3ccccc3)nn12 | 0%
CC1=C[C@@H](CN2CCC(C)CC2)[C@H](C(C)C)C[C@H]1Cc1nnc(-c2cccnc2)o1 | -1%[70.6 µM]
O=C(Nc1ccc(Oc2ccccc2)cc1)O[C@@H]1CO[C@H]2[C@@H]1OC[C@@H]2NC(=S)Nc1cccc2ccccc12 | 10µM*
CC1CCC2(CC1)NC(=O)N(CC(=O)Nc1cccc(Cl)c1)C2=O (configuration not stated) | 3%
CN1C(=O)[C@@H]2C[C@@H](O)CN2C2(CN(Cc3cnc4ccccc4c3)C2)C1=O | -4%[70.6 µM]
CCCNC(=O)CC1Sc2ncccc2N(CCC)C1=O (configuration not stated) | -3%
O=C(C1CC1)N1CC2CC(C1)[C@H]1CCCC(=O)N1C2 (some centres not stated) | 4%

structure | NPR1 antag
CCCCCC(=O)Nc1ccc([C@H]2OCC(=O)N[C@@H]2CO)cc1 | 0%[70.6 µM]
O=C(NCCC1CCN(C(=O)Nc2ccccc2F)CC1)c1cccs1 | -1%
CCCN1CCc2nc(C(=O)Nc3nc(C)cs3)oc2CC1 | -2%[70.6 µM]
COc1ccc(-c2ccnc3nc(C4CCC4)nn23)c(F)c1 | 5%
COCCNC(=O)N1CCCC(CNC(=O)C2(c3ccc(Cl)cc3)CC2)C1 (configuration not stated) | 4%
COc1cccc(Nc2cnc3ccc(-c4cccc(CO)c4)nn23)c1 | -17%[70.6 µM]
Cc1nnc(N2CCC3(CCC(=O)N(CCCN(C)C)C3)CC2)c2ccccc12 | 1%
Cc1cccc(CNC(=O)CCC2CCN(S(=O)(=O)c3ccccc3)CC2)c1 | -6%
CC1(C(=O)NCCOc2ccccc2)CCCc2cnc(Nc3cccnc3)nc21 (configuration not stated) | -16%[70.6 µM]
CCN1C(=O)CCN(C(=O)Cc2cccc(OC)c2)CC12CCOCC2 | 0%

structure | NPR1 antag
COC(=O)[C@@H]1Cc2ncn(Cc3ccc(Cl)cc3)c2CN1Cc1cccnc1 | -7%[70.6 µM]
O=C(c1cc2c(s1)CCCC2)N1CCC2(CC1)OCCCC2O (configuration not stated) | -9%
CCn1ncc(N2CCC(NC(=O)c3cccc(OC)c3)CC2)cc1=O | 0%
CCc1cccc(NC(=O)CN2C=C(C(=O)OC)C(C)=NS2(=O)=O)c1 | 1%
CC(C)CNC(=O)N1CC(n2cc(C(=O)NCc3ccncc3)nn2)C1 | 5%
COc1cccc(C(=O)N2CCC(C(NC(=O)c3ccc(F)cc3)C(=O)N3CCCC3)CC2)c1 (configuration not stated) | -13%
CCN1c2cc(C(=O)Nc3ccc(OC(F)(F)F)cc3)ccc2C(=O)N2CCCCCC21 (configuration not stated) | -24%
NC(=O)[C@@H]1CN(C(=O)c2ccccc2)C[C@H]1COc1ccccc1 | -9%
CCc1ccccc1NC(=O)Nc1cccc(-c2ccc(N3CCOCC3)nn2)c1 | -25%
Cc1nc(-c2cccc(S(=O)(=O)N3C[C@@H](N)C[C@H]3C(=O)NC(C)C)c2)no1 | 2%

structure | NPR1 antag
CC1=C[C@@H](CO)[C@H](C(C)C)C[C@H]1Cc1nnc(Cc2c[nH]c3ccccc23)o1 | -13%[70.6 µM]
COCC(=O)N1CC[C@]2(O)CCN(C(=O)c3ccc(C(C)=O)s3)C[C@@H]2C1 | 5%
CCCn1ccc2sc(C)c(C(=O)NCc3ccccc3OCC)c2c1=O | -1%
CCOc1ccc2c(n1)CCN(C(=O)c1ccc(OC)nc1)C2 | -7%
COC1CN(c2cccc(F)c2)C12CCN(C(=O)C1CCC1)CC2 (configuration not stated) | 3%
CN1C(=O)c2cccn2CC1C(=O)NC1CC1 (configuration not stated) | -6%
O=C(Nc1ccc(Oc2ccccc2)cc1)N[C@H]1CO[C@H]2[C@@H]1OC[C@@H]2Nc1nccc(-c2cccc(F)c2)n1 | -22%
COc1ccc2c(C)c(C(=O)N3CCCOC(Cn4cccn4)C3)oc2c1 (configuration not stated) | -5%
O=C(c1ccc2cc[nH]c2c1)N1CCC2(CC1)CC(Cc1cccc(F)c1)CCO2 (configuration not stated) | -25%
Cc1ccc(-c2nnc([C@H]3CCN(C(C)C)C3)o2)cc1 | 0%[70.6 µM]

structure | NPR1 antag
O=C(Cn1cccc1-c1nc(-c2ccc(F)cc2)no1)Nc1ccc2c(c1)OCO2 | -13%
Cn1cccc1CN1CCC2(CC1)CC(=O)N(c1ccccc1)c1ccccc1O2 | -23%
O=C(N[C@H]1CCN2C(=O)[C@@H](Cc3c[nH]c4ccccc34)NC(=O)[C@H]12)c1cnccn1 | -1%[70.6 µM]
Cn1ccc2c(C(=O)N[C@H](c3cccs3)C3CC(O)C3)cccc21 (some centres not stated) | -10%
O=C(C1CC(=O)N(c2n[nH]c3cc(Br)ccc23)C1)N1CCCC1 (configuration not stated) | 3%
O=C(Cc1c[nH]c2ncc(-c3ccccc3)cc12)Nc1ccc(Cl)cc1 | u
O=C(Cc1c[nH]c2ncc(-c3ccncc3)cc12)N1CCOCC1 | -3%[70.6 µM]
COc1cccc(CCC(=O)N2CCCN(c3cc(-c4ccc(C)c(C)c4)[nH]n3)CC2)c1 | -12%
Fc1ccc2nc(CO[C@H]3CN(Cc4ccncc4F)C[C@H]3F)[nH]c2c1 | -1%[70.6 µM]
Cc1cccc(CCNC(=O)c2coc(COc3cccc(F)c3F)n2)n1 | -16%

structure | NPR1 antag
COC[C@@H]1CN(S(=O)(=O)c2ccccc2F)C[C@H]1C(N)=O | 5%
COC(=O)c1cc2n(n1)CCN(C(=O)c1cc(CC(C)C)[nH]c(=O)n1)C2 | 9%
C=CCn1cc(CN2CCOC(Cc3cccc4ccccc34)C2)c(C)n1 (configuration not stated) | 3%
O=C(NCCC1CCN(C(=O)Nc2ccccc2F)CC1)c1ccccn1 | -7%
O=C(C1CC1)N(C1CCOCC1)C1CCN(S(=O)(=O)c2ccc3c(c2)CCCC3)CC1 | -14%
Cc1cc2nc3n(c(=O)c2n1CC(=O)NCc1ccccc1Cl)CCCC3 | 0%
Cc1nn2c(c1-c1ccccc1Oc1ccccc1)N([S+](=O)([O-])c1cccnc1)CCC2 | -17%
CC(=O)Nc1ccc(CN2CCC3(CC2)COc2ccccc2C(=O)N3)cc1 | -3%
CCC1(C(=O)Nc2cc(OC)ccc2OC)CCCCC(=O)N1 (configuration not stated) | -10%
COc1ccc(C(=O)N2CCn3nc(C(O)CS(C)(=O)=O)cc3C2)cn1 (configuration not stated) | 0%

structure | NPR1 antag
COc1ccc(C(=O)N2CCc3nc(C)nc(-c4ccc(Cl)cc4)c3CC2)cc1 | -14%
CC(=O)N1CC2(Cc3ccccc31)CN(C(=O)Nc1ccccc1)C2 | 5%[70.6 µM]
CCOc1ccc2c(n1)CCN(C(=O)C1CCCC1)C2 | 4%
CC(C)c1nc(NCCCN2CCCC(C(N)=O)C2)c2cnn(C)c2n1 (configuration not stated) | 1%
FC1(F)CN[C@H](c2nc(-c3cccnc3)no2)C1 | -2%
O=C1NCC2(CCN(C(=O)c3ccc(C(F)(F)F)cc3)CC2)Oc2ccccc21 | 0%
CN(Cc1ccc(F)cc1)C(=O)Cc1cccc(Cl)c1 | -9%[70.6 µM]

In the list so far, two contain a COOH group.
structure | NPR1 antag
Cc1ncccc1OC1(C(=O)O)CCN(C(=O)Cc2ccn(C)c2)CC1 | 22%
Cc1nccn1CC(=O)N1CCCC(c2ccc(C(=O)O)cc2)C1 (configuration not stated) | -3%

These rows are one share of the data. The share of hits here may be higher or lower than overall.
